eIF4H inh: human eIF4H binding inhibitors, primary screen, translation initiation inhibitor project, biochemical, uHTS, fluorescence polarization; inhibition, % at 35 µM; AID 2012, 2009; eIF4H fluorescence polarization binding assay; Eukaryotic translation initiation factor 4H (Homo sapiens), Q15056; 290,000 compounds, 0.94% hits;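 active = 50% or more with normal probe brightness, or confirmed in later tests; inconclusive = above 50% with abnormal brightness, or retests that disagree; inactive = below 50% or failed in later tests; about a fifth of its hits are not listed in these tables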;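 note: calls also rest on retests at 20 µM and on dose response follow-up; 0% = protein and probe with vehicle and 100% = probe without protein; strong numbers were not always called active; many hits fall short of the cut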
Rce1 inhib: yeast Rce1p protease inhibitors, primary screen, biochemical, fluorescence, cell-free homogeneous; CAAX prenyl protease 2 (Saccharomyces cerevisiae (strain ATCC 204508 / S288c)), Q03530; AID 2563, 2010; calls only; yeast membranes, quenched prenylated peptide cleavage fluorescence; 290,000 compounds, 0.27% hits;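 active = fall in fluorescence gain of 50% or more versus controls, with final raw signal at or below 3038400; inconclusive = same 50% fall but final raw signal above 3038400; inactive = fall in fluorescence gain under 50%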;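 note: plate controls were neutral control wells for no effect and wells lacking membranes for full effect; tested at 10 µM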
Target sequence (Q03530 whole entry, looked up): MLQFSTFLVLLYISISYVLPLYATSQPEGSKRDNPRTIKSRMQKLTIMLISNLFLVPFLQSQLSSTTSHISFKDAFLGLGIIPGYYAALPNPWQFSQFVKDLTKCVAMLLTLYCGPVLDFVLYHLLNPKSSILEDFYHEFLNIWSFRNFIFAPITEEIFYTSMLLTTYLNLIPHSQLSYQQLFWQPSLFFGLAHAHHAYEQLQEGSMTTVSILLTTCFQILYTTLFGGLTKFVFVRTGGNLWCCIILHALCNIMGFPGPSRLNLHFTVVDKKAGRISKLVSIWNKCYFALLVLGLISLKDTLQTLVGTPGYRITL
UUG fidelity: modulators of yeast start codon fidelity, primary screen, whole organism, S. cerevisiae, single point, plate reader; S. cerevisiae UUG-firefly luciferase reporter, luminescence/redox ratio; activity score, % at 18.7 µM; 350,000 compounds, 0.13% hits;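 active = replicate mean at a twofold rise or more, about +100% in these data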;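 note: firefly luciferase made from a UUG start codon reports start codon fidelity; reporter light over untreated wells divided by growth signal over untreated wells; some hits fall short of that in this replicate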
Env fusion inh: inhibitors of HIV-1 Env-driven cell-cell fusion, primary screen, HeLa-JRFL effector, CEM21 target cells, luciferase | inhibition, % at 12.3 µM | 360,000 compounds, 1.1% hits;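 active = mean replicate inhibition score of at least 50 and every replicate individually at or above 50; inconclusive = only one of the two criteria met; inactive = mean below 50 and not all replicates reaching 50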;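 note: 0% = plate neutral controls and 100% = maraviroc near 300 nM; one replicate is shown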
CSC inhib: cancer stem cell viability inhibitors, primary screen, luminescence; cancer stem cell-like cells viability; 300,000 compounds, 1.1% hits; inhibition, % at 7.5 µM;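 active = mean at 75% or more and at least half the replicates too; inconclusive = mean and replicates disagree; tested in HMLE shEcad cells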;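 note: 0% = median of negative and 100% = median of positive control wells; the first replicate is given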
MT1-MMP act inh: blockers of MT1-MMP proenzyme processing, primary screen, HT1080 RFP-PRO-GFP cells, GFP/RFP fluorescence; Matrix metalloproteinase-14 (Homo sapiens), P50281; AID 651647, 2012; GFP/RFP ratio fluorescence, overnight; percent of plate control window, DMSO zero; GFP/RFP ratio change, % at 20 µM; 360,000 compounds, 0.061% hits;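 active = GFP/RFP ratio change of at least 30% with cell ATP level not reduced by more than half and red fluorescence within 50% of control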; note: strong numbers were not always called active
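Assay system – RFP-PRO-GFP reporter HT1080 cells · Compound dosing – single dose of 20 µM compound, 1% DMSO final · Incubation – overnight compound exposure at 37 °C · Measure – GFP/RFP fluorescence ratio · Benchmarks – DMSO wells and RFP-L50D-GFP cells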
PABP polyA inh: PABP poly(A) RNA binding inhibitors, primary screen, biochemical, fluorescence polarization, uHTS; Polyadenylate-binding protein 1 (Homo sapiens), P11940; inhibition, % at 35 µM; 290,000 compounds, 1% hits; AID 2014, 2009;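 active = 50% or more with normal probe brightness, or confirmed in later tests; inconclusive = above 50% with abnormal brightness, or retests that disagree; inactive = below 50% or failed in later tests; about a fifth of its hits are not listed in these tables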;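 note: calls also rest on retests at 20 µM and on dose response follow-up; controls were probe without protein and protein plus probe with vehicle; some compounds called inactive have numbers as strong as hits; many hits fall short of the cut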
eIF4H inh retest: second read-out of eIF4H inh, no call of its own (marks repeat the call); inhibition, %; compound at 20 µM; confirmation average;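 mean of two retest wells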
PABP polyA inh retest: second read-out of PABP polyA inh, no call of its own (marks repeat the call); inhibition, %; compound at 20 µM; confirmation repeats;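 mean of two retest wells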
MT1-MMP act inh RFP: recorded beside MT1-MMP act inh, whose call it bears; RFP signal change, %; measured here: RFP expression control read;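 0 = vehicle wells; hits needed this value within 50% of zero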
Active calls of the source: *; i = inactive; ? = inconclusive; nt = no result given; & = joins results of further samples. These rows are one share of the data. The share of hits here may be higher or lower than overall.

SMILES	eIF4H inh	Rce1 inhib	UUG fidelity	Env fusion inh	CSC inhib	MT1-MMP act inh	MT1-MMP act inh RFP	PABP polyA inh	others
CCCSC1=C(C#N)C(c2ccccc2C)C(C(=O)OC)C(=O)N1 (stereo not given)	-2	i	nt	nt	-11	3	-1	4
COc1cccc(/C=C2/C(=O)NN(c3ccccc3)C2=O)c1	-6	i	-14	14	2	-5	-1	2
CCOc1ccc(-n2c(SCC(=O)Nc3cc(OC)c([N+](=O)[O-])cc3C)nc3ccccc32)cc1	0	i	3	11	-17	2	0	4
O=C(Cc1ncn[nH]1)NCCc1ccccc1	0	i	-12	4	4	2	3	21
NC(=O)c1cc(Br)cc2c3c([nH]c12)CCCC3	30	i	-22	-74	-9	-7	-7	17
CC(NCCc1ccc(S(N)(=O)=O)cc1)C(=O)NCc1ccccc1 (stereo not given)	-7	i	-7	1	-1	3	6	7
COc1cc(C(O)c2nc(-c3cnn(C)c3)cs2)ccc1F (stereo not given)	nt	nt	-3	-4	nt	1	-2	nt
Cc1ccccc1CO/N=C/c1[nH]ncc1Br	-3	i	-19	3	-13	0	3	0
Cc1ccc(CSCC(=O)Nc2ccc3c(c2)OCO3)cc1	-1	i	-12	12	-4	4	-6	8
Cc1ccc(S(=O)(=O)Nc2ccccn2)cc1[N+](=O)[O-]	3	i	-3	21	-10	3	5	8

Next part; it opens with the three that closed the last part.
SMILES	eIF4H inh	Rce1 inhib	UUG fidelity	Env fusion inh	CSC inhib	MT1-MMP act inh	MT1-MMP act inh RFP	PABP polyA inh	others
Cc1ccccc1CO/N=C/c1[nH]ncc1Br	-3	i	-19	3	-13	0	3	0
Cc1ccc(CSCC(=O)Nc2ccc3c(c2)OCO3)cc1	-1	i	-12	12	-4	4	-6	8
Cc1ccc(S(=O)(=O)Nc2ccccn2)cc1[N+](=O)[O-]	3	i	-3	21	-10	3	5	8
Oc1ccccc1N=Nc1ccccc1O	13	i	nt	41	nt	8	3	-10
Cc1nc(C)c(C(=O)Nc2nc3c(C)cccc3s2)o1	70*	nt	-5	?	1	-5	3	11*	eIF4H inh retest=78*;PABP polyA inh retest=63*
NS(=O)(=O)c1ccc(CCNC(=O)CSc2nc3ccccc3c3nc(CCN4CCCCC4)nn23)cc1	-3	i	nt	17	-12	-5	0	2
CC(=O)NC1CC2CCCC(C1)N2C(=O)Nc1cccc(C)c1 (stereo not given)	nt	nt	-12	4	nt	0	0	nt
Clc1ccc(C(c2nnnn2C2CCCC2)N2CCN(Cc3ccncc3)CC2)cc1 (stereo not given)	-14	i	-7	nt	-5	nt	nt	-7
COc1cccc(/C=N/N2C(=O)NC3(CCCCC3)C2=O)c1O	10	i	-9	nt	19	4	5	4
CCN(C(=O)COC(=O)/C(=C/c1ccccc1)n1nnnc1C)C1CCCCC1	nt	i	-7	11	6	-20	-15	nt
CCc1ccccc1OCC(=O)N1CCN(c2ncccn2)CC1	nt	nt	4	-4	nt	2	2	nt
CC(=O)N1CCN(S(=O)(=O)c2cccc(C(=O)NNC(=O)COc3c(C)cccc3C)c2)CC1	nt	nt	-9	12	-15	0	-1	nt
Cc1ccc(-c2csc(-c3c[nH]c4ccccc34)n2)cc1	-4	i	-13	nt	0	2	4	-8
COc1ccc(CN2c3cc(S(=O)(=O)N4CCOCC4)ccc3N3CCCC32)cc1 (stereo not given)	-5	i	9	nt	-17	-1	2	7
COc1ccc2[nH]c(=O)c(CNC3CCCCC3)cc2c1	16	i	2	nt	-10	4	3	18
O=C(CN(C(=O)c1csnn1)c1cccc(Cl)c1)NCCc1ccccc1	3	i	-13	-14	-2	1	5	9
CCOC(=O)c1sc(Nc2nc3ccc(OC)cc3s2)cc1C	0	i	nt	-1	-3	4	3	-3
O=C(Cn1nnc(-c2ccccc2)c1COc1ccc2ccccc2c1)NCC1CC1	nt	nt	-20	-2	nt	4	0	nt
COc1ccc(NC(=O)COc2cccnc2[N+](=O)[O-])cc1OC	-1	i	-18	5	-10	1	4	1
N=c1c2c(-c3ccccc3)c(-c3ccccc3)n(Cc3ccco3)c2ncn1CCO	1	i	6	nt	37	-19	-19	-8
COc1ccc(NCc2nnc(SCC(=O)c3ccc(OC)cc3)o2)cc1	-4	i	-4	-8	4	6	1	5
CCC(CC)c1nnc(NC(=O)c2nc3nc(C)cc(C)n3n2)s1	-12	i	0	nt	-8	-4	7	-8
Cc1ncc([N+](=O)[O-])n1CC(=O)Nc1cccc(C(F)(F)F)c1	-6	i	-15	21	6	4	-2	2
CN(C)c1cccc(C(=O)NCc2ccc(Cl)cc2)c1	-5	i	nt	5	4	2	4	5
O=C(/C=C/c1ccccc1)NC(=S)NNC(=O)c1cccnc1	11	i	-32	-47	-1	5	1	-6
COc1ccc(-c2[nH]ncc2N=Nc2ccccc2)cc1	-10	i	nt	-33	94*	5	-3	-4
O=C(O)c1ccc(-n2nc(C(F)(F)F)cc2-c2cccs2)cc1	-8	i	-24	0	4	3	3	-1
Cc1cc(Cl)ccc1C(=O)C1CCCN(C(=O)c2cnn(C(C)C)c2)C1 (stereo not given)	6	i	-6	0	6	0	-3	0
CN(C)S(=O)(=O)c1ccc(N2CCCC2)c(C(=O)Nc2ccccc2F)c1	nt	i	-2	36	-4	-2	2	nt
COc1ccccc1C(=O)Nc1nnn(C)n1	0	i	-12	-37	-8	11	-1	6
Cc1ccc(N2CC(C(=O)Nc3ccc4c(c3)OCO4)CC2=O)cc1C (stereo not given)	-5	nt	-14	17	-10	1	5	4
Cc1ccc(Cn2nc(C)c(NC(=O)C3(C)CC3(Br)Br)c2C)cc1 (stereo not given)	-7	nt	8	-72	-16	0	1	5
O=C(Oc1ccc(-c2ccccc2)cc1)C1C2CCCCC21 (stereo not given)	-14	i	-19	nt	-7	4	5	-16
CCOCCCn1c(SCC(=O)Nc2oc(C)c3c(C)n[nH]c(=O)c23)nnc1-c1ccncc1	nt	i	-7	-4	0	0	0	nt
CCCCNC(=O)/C(=C/c1ccco1)NC(=O)c1ccco1	-15	i	0	-2	-30	1	5	-6
COC(=O)c1cc2c(s1)-c1ccccc1OC2	-2	i	-10	nt	1	8	7	0
Cc1nn(C2CCS(=O)(=O)C2)c(C)c1CN(C)C(=O)c1ccc(S(=O)(=O)N(C)C)cc1 (stereo not given)	nt	nt	-8	nt	-10	1	0	nt
O=C(Nc1cc(=O)[nH]c(=O)[nH]1)c1cccc(C(F)(F)F)c1	nt	i	-13	0	0	4	3	nt
COc1ccc(OC)c(-c2csc3nnc(SCC(=O)Nc4ccc(NC(C)=O)cc4)n23)c1	0	i	-7	nt	3	0	5	6
Cc1cc(C)n(-c2ccc(C(=O)Nc3ccc4c(c3)OCCO4)cc2)n1	-10	i	-9	nt	-4	4	-10	-10
O=C(NC1CCCCCC1)C1CCN(C(=O)c2ccc(Cl)cc2)CC1	nt	nt	9	2	nt	1	-4	nt
CC(C)[C@H](NC(=O)c1ccccc1)C(=O)OCC(=O)NCC1CCCO1 (stereo not given in full)	nt	nt	3	4	-9	2	1	nt
CCn1cc(S(=O)(=O)c2ccc(C)cc2)c(=O)c2cc(F)c(N3CCN(C)CC3)cc21	-12	i	13	11	-19	3	4	0
COc1ccc(OCCC(=O)OCC(=O)NC(=O)NC(C)C)cc1	7	i	-14	?	7	-7	2	6
CCOC(=O)c1ccc(-c2c(-c3cc(OC)c(OC)c(OC)c3)noc2C)cc1F	-1	i	-12	-84	68	14	-2	6
COC(=O)c1cnc(Oc2ccc(NC(=O)NC(=O)c3c(OC)cccc3OC)cc2)cc1C(F)(F)F	-8	i	nt	-128	41	16	-8	-4
CCN(CC)c1cnn(C/C(=N\OC)c2ccc(Cl)cc2)c(=O)c1Br	-3	i	nt	nt	-4	-1	-2	-13
CCCNC(=O)NC(=O)CSc1nncs1	0	i	nt	?	nt	-2	-2	3
CCOc1ccc(NC(=O)CC2C(=O)N(CC)C(=S)N2NC(=O)c2ccncc2)cc1 (stereo not given)	-3	i	nt	-31	-13	-2	3	-1
CS(=O)(=O)Oc1ccc(Br)c2cccnc12	8	i	-10	8	-22	0	-1	-2
C[C@@H]1C[C@H]2[C@@H]3C[C@H](F)C4=CC(=O)C=C[C@]4(C)[C@@]3(Cl)[C@@H](O)C[C@]2(C)[C@H]1C(=O)COC(=O)C(C)(C)C	nt	nt	-14	i	0	-3	-1	nt
Cc1ccc(C(=O)COC(=O)c2c(C)cc(=O)oc2C)cc1[N+](=O)[O-]	-6	i	nt	nt	nt	7	5	-4
C[C@@H]1CN([C@@H](C)CO)C(=O)CCCn2nncc2CO[C@H]1CN(C)S(=O)(=O)c1ccc(Cl)cc1	nt	nt	-14&9&2	-9	nt	2	3	nt
(further entries)
SMILES	eIF4H inh	Rce1 inhib	UUG fidelity	Env fusion inh	CSC inhib	MT1-MMP act inh	MT1-MMP act inh RFP	PABP polyA inh	others
CC12CCC(C(=O)NC3CCCC3)(CC1=O)C2(C)C (stereo not given)	-9	i	-1	nt	-12	-3	-4	-5
CC(=O)Nc1cccc(NC(=S)Nc2cccc(Cl)c2Cl)c1	8	i	nt	-3	-17	-1	0	-9
CCc1nn(CCCC(=O)NC2CCCCC2C)c(=O)c2cc3occc3n12 (stereo not given)	nt	nt	-3	4	nt	8	2	nt
COc1cc(F)ccc1S(=O)(=O)N1CCN(C23CC4CC(CC(C4)C2)C3)CC1	-9	i	-14	-5	41	1	6	-8
Cc1ccc(-c2nnc3c(C(F)(F)F)nc4ccccc4n23)cc1	-8	i	nt	nt	-6	-8	-22	-2
O=C(NCc1nnc(SCC(=O)N2CCCC2)o1)c1c(F)cccc1F	-9	i	-1	nt	2	-1	5	1
COc1ccccc1NC(=O)N1CCN(C(=O)c2ccco2)CC1	-16	i	-8	-30	-10	0	3	-2
COc1ccc2cc(C(C)C(=O)Nc3cccc(S(=O)(=O)N(C)C)c3)ccc2c1 (stereo not given)	-6	i	-5	39	-3	-2	-10	-1
CCc1cc2c(N3CCCCC3)ncnc2s1	-20	i	-11	nt	3	-1	-4	18
CN1CCN(c2nc(-c3ccc(Cl)s3)cs2)CC1	9	i	nt	0	8	2	4	-1
CC(C)(C)c1ccc(C(=O)OCCN2CCCCC2)cc1	-2	i	-13	0	0	1	0	4
Cc1ccc(S(=O)(=O)c2cnc(-c3ccccc3)nc2N2CCN(C)CC2)cc1	7	i	nt	18	2	0	1	-5
O=C(NC(c1ccc(Cl)cc1)c1ccsc1)C1CCN(CCOc2ccc(Cl)cc2)CC1 (stereo not given)	nt	nt	-24	-6	nt	2	-2	nt
COc1ccc(C(=O)O/N=C(\N)c2ccc(Cl)cc2)cc1	5	i	-14	-101	-5	-1	-3	-3
C/C(=N\Nc1nc2ccccc2s1)c1cccs1	17	i	-50	-227	28	0	0	-3
Cn1c(=O)n(-c2ccc(Cl)cc2)c(=O)c2c3c(sc21)COC(C)(C)C3	-14	i	-8	1	-5	-4	-3	-6

Compound activity: PubChem, several laboratories
